NOMO-1 viab = STK33 inhibitor candidate reducing NOMO-1 cell viability; NOMO-1 AML viability, CellTiter-Glo luminescence, 72 h; inhibition, % (test concentration not listed); 37,000 tested, 7.5% active;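 active means most replicates above 80%; inconclusive means exactly half above 80%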;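 further: wells of about 30 µL received 25 nL stock; 0% = median of vehicle wells and 100% = reference inhibitor level; the first replicate is given; inactives centre near 10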
* = called active by the depositor; u = inconclusive.

SMILES	NOMO-1 viab
C[C@H]1CN([C@@H](C)CO)C(=O)c2cccc(NC(=O)Nc3ccccc3)c2O[C@@H]1CN(C)CC1CCCCC1	89.9*
C[C@H]1CN([C@@H](C)CO)C(=O)c2cc(NS(=O)(=O)c3ccc(Cl)cc3)ccc2O[C@H]1CN(C)Cc1ccc(Oc2ccccc2)cc1	u
Cc1ccc(S(=O)(=O)Nc2ccc3c(c2)CC(=O)N([C@@H](C)CO)C[C@H](C)[C@H](CN(C)Cc2ccc(Cl)c(Cl)c2)O3)cc1	71.4
Cc1noc(C)c1S(=O)(=O)Nc1cccc2c1O[C@H](CN(C)C(=O)Nc1ccc(F)cc1)[C@H](C)CN([C@H](C)CO)C2=O	-6.2
C[C@H]1CN([C@@H](C)CO)C(=O)Cc2cc(NS(=O)(=O)c3cn(C)cn3)ccc2O[C@@H]1CN(C)S(=O)(=O)c1ccc(F)cc1	-19.6
C[C@@H]1CN([C@@H](C)CO)C(=O)c2cccc(NC(=O)C3CC3)c2O[C@H]1CN(C)S(=O)(=O)c1ccccc1	3.2
COc1cccc2cc(C(=O)CC3(O)C(=O)N(Cc4ccccc4)c4ccc(Br)cc43)c(=O)oc12 (stereo unspecified)	127.0*
COc1ccc(S(=O)(=O)N(C)C[C@@H]2Oc3ccc(NS(=O)(=O)c4c(C)noc4C)cc3C(=O)N([C@H](C)CO)C[C@@H]2C)cc1	21.5
O=C(NCCCN1CCOCC1)c1ccc2nc(-c3ccccc3)c(-c3ccccc3)nc2c1	2.1
Cc1noc(C)c1NC(=O)Nc1ccc2c(c1)CC(=O)N([C@@H](C)CO)C[C@@H](C)[C@@H](CN(C)S(=O)(=O)c1cccs1)O2	19.0
C[C@@H]1CN([C@@H](C)CO)C(=O)c2cccc(NC(=O)Nc3ccc4c(c3)OCO4)c2O[C@@H]1CN(C)CC1CCCCC1	15.0
Cn1ccnc1SCCS(=O)(=O)c1ccccc1	-19.4
C[C@H]1CN([C@@H](C)CO)C(=O)c2cccc(NC(=O)c3ccc(-c4nccs4)cc3)c2O[C@H]1CN(C)Cc1ccc(C(=O)Nc2ccccc2N)cc1	101.3*
C[C@@H]1CN([C@H](C)CO)C(=O)Cc2cc(NC(=O)NC3CCCCC3)ccc2O[C@@H]1CN(C)C(=O)Nc1ccc(C(F)(F)F)cc1	29.9
COc1ccc(C)cc1S(=O)(=O)N(C)CC(=O)Nc1ccc(F)c(Cl)c1	14.8
Cc1ccc(S(=O)(=O)N(C)C[C@H]2Oc3c(NC(=O)c4cc(C)nn4C)cccc3C(=O)N([C@H](C)CO)C[C@@H]2C)cc1	18.9
Cc1ccc(S(=O)(=O)Nc2ccc3c(c2)C(=O)N([C@@H](C)CO)C[C@H](C)[C@H](CN(C)S(=O)(=O)c2c(C)noc2C)O3)cc1	1.5
C[C@H](CO)N1C[C@H](C)[C@H](CN(C)Cc2ccc(C(F)(F)F)cc2)Oc2ccc(N(C)C)cc2C1=O	23.0
C[C@@H]1CN([C@H](C)CO)C(=O)Cc2cc(NS(=O)(=O)c3cccs3)ccc2O[C@@H]1CN(C)C(=O)NC1CCCCC1	-9.0
COc1ccc(C(C)C)cc1S(=O)(=O)n1cnc2ccccc21	122.6*
COc1ccc(CN2CCCC2C(=O)Nc2ccc(OC)c(OC)c2)cc1OC (stereo unspecified)	13.1
CCc1cc(-c2n[nH]c(C(=O)O)c2-c2nc(C)cs2)c(O)cc1O	7.8
COc1ccc(C)cc1N(CC(=O)N1CCN(c2cc(Cl)ccc2C)CC1)S(C)(=O)=O	12.0
C[C@@H]1CCCCO[C@@H](CN(C)S(=O)(=O)c2cccs2)[C@@H](C)CN([C@H](C)CO)C(=O)c2cc(NC(=O)Nc3ccc(F)cc3)ccc2O1	20.8
C=C(C)[C@@H]1Cc2c(ccc3c2O[C@H]2COc4cc(OC)c(OC)cc4[C@@]2(O)C3=O)O1	116.8*

Five structures already listed, ordered by number of heavy atoms, descending.
SMILES	NOMO-1 viab
C[C@@H]1CCCCO[C@@H](CN(C)S(=O)(=O)c2cccs2)[C@@H](C)CN([C@H](C)CO)C(=O)c2cc(NC(=O)Nc3ccc(F)cc3)ccc2O1	20.8
Cc1noc(C)c1S(=O)(=O)Nc1cccc2c1O[C@H](CN(C)C(=O)Nc1ccc(F)cc1)[C@H](C)CN([C@H](C)CO)C2=O	-6.2
Cc1ccc(S(=O)(=O)N(C)C[C@H]2Oc3c(NC(=O)c4cc(C)nn4C)cccc3C(=O)N([C@H](C)CO)C[C@@H]2C)cc1	18.9
COc1cccc2cc(C(=O)CC3(O)C(=O)N(Cc4ccccc4)c4ccc(Br)cc43)c(=O)oc12 (stereo unspecified)	127.0*
CCc1cc(-c2n[nH]c(C(=O)O)c2-c2nc(C)cs2)c(O)cc1O	7.8

New compounds follow:
SMILES	NOMO-1 viab
CC(C)NC(=O)Nc1cccc2c1O[C@H](CN(C)S(=O)(=O)c1cccs1)[C@H](C)CN([C@@H](C)CO)C2=O	-10.5
Cc1noc(C)c1NC(=O)Nc1ccc2c(c1)CC(=O)N([C@H](C)CO)C[C@H](C)[C@H](CN(C)Cc1ccc(-c3ccccc3)cc1)O2	43.1
Cc1noc(C)c1NC(=O)Nc1cccc2c1O[C@@H](CN(C)C(=O)NC1CCCCC1)[C@@H](C)CN([C@@H](C)CO)C2=O	16.5
Nc1nc(SCC(=O)N2CCCc3ccccc32)[nH]c(=O)c1-c1ccccc1	-14.6
CCc1ccc(OCCCn2cc(/C=C3/C(=N)N4C=CSC4=NC3=O)c3ccccc32)cc1	54.0
C[C@H]1CN([C@@H](C)CO)C(=O)c2cc(NC(=O)C3CCCCC3)ccc2O[C@@H]1CN(C)CC1CC1	-15.3
C[C@@H]1CN([C@@H](C)CO)C(=O)c2cccc(NS(=O)(=O)c3ccc(Cl)cc3)c2O[C@H]1CN(C)Cc1ccc(C(=O)Nc2ccccc2N)cc1	48.4
C[C@@H]1CN([C@@H](C)CO)C(=O)Cc2cc(NC(=O)Cc3cn(C)c4ccccc34)ccc2O[C@@H]1CN(C)Cc1ccccc1	36.8
C[C@H]1CN([C@@H](C)CO)C(=O)c2cc(NS(=O)(=O)c3ccc(F)cc3)ccc2O[C@@H]1CN(C)CC1CC1	-21.8
CNC[C@H]1Oc2c(NS(=O)(=O)c3ccc(Cl)cc3)cccc2C(=O)N([C@@H](C)CO)C[C@@H]1C	1.4
C[C@@H]1CN([C@@H](C)CO)C(=O)c2cc(NC(=O)NC3CCCCC3)ccc2O[C@@H]1CN(C)C(=O)Nc1cccc2ccccc12	43.4
Cc1c(NC(=O)CN2c3cccc4cccc(c34)S2(=O)=O)c(=O)n(-c2ccccc2)n1C	-2.0
CC1(C)CC[C@]2(C(=O)O[C@@H]3O[C@H](CO)[C@@H](O)[C@H](O)[C@H]3O)CC[C@]3(C)C(=CCC4[C@@]5(C)CC[C@H](O[C@@H]6O[C@H](CO)[C@@H](O)[C@H](O)[C@H]6O)[C@@](C)(CO)C5CC[C@]43C)[C@@H]2C1 (stereo partly specified)	30.9
COc1ccc(CN(C)C[C@@H]2Oc3ccc(NC(=O)Nc4cccc5ccccc45)cc3CC(=O)N([C@@H](C)CO)C[C@@H]2C)cc1	24.7
C[C@@H]1CCCCO[C@H](CN(C)Cc2ccccc2)[C@@H](C)CN([C@H](C)CO)C(=O)c2cc(NS(C)(=O)=O)ccc2O1	32.0
C[C@@H]1CCCCO[C@@H](CN(C)C(=O)CCCN(C)C)[C@@H](C)CN([C@H](C)CO)C(=O)c2cc(N(C)C)ccc2O1	3.1
CC(C)NC(=O)N(C)C[C@H]1Oc2c(NC(=O)Nc3ccccc3)cccc2C(=O)N([C@H](C)CO)C[C@H]1C	1.2
Cc1noc(C)c1S(=O)(=O)Nc1ccc2c(c1)C(=O)N([C@@H](C)CO)C[C@@H](C)[C@@H](CN(C)C(=O)Nc1ccc3c(c1)OCO3)O2	-5.8
Cc1ccc([N+](=O)[O-])cc1NC(=O)Cn1cnc2ccccc2c1=O	-8.5
C[C@@H]1CCCCO[C@H](CN(C)Cc2ccncc2)[C@@H](C)CN([C@H](C)CO)C(=O)c2cc(N(C)C)ccc2O1	6.1
CNC(=O)CCC(=O)Nc1ccc(C(=O)OC)cc1	14.6
COc1ccccc1NC(=O)C1C=C2C=CC=CC2OC1=Nc1ccccc1F (stereo unspecified)	40.1
C[C@@H]1CN([C@H](C)CO)C(=O)Cc2cc(N(C)C)ccc2O[C@@H]1CN(C)S(=O)(=O)c1cccs1	7.7
C[C@@H]1CN([C@H](C)CO)C(=O)Cc2cc(NC(=O)Cc3cn(C)c4ccccc34)ccc2O[C@H]1CN(C)CC1CC1	20.9
C[C@H](CO)N1C[C@H](C)[C@H](CN(C)C(=O)Nc2ccccc2)Oc2c(NC(=O)c3nc4ccccc4s3)cccc2C1=O	45.7
Continued:
SMILES	NOMO-1 viab
O=C(Nc1ccccc1)c1ccc(Br)c(S(=O)(=O)Nc2ccccn2)c1	18.6
O=C(CSc1nnc(-c2ccc(Br)cc2)o1)Nc1ccc(Cl)c(Cl)c1	5.6
O=C(CSc1nc2ccccc2[nH]1)Nc1ccc2c(c1)oc1ccccc12	31.7
C[C@@H]1CN([C@H](C)CO)C(=O)Cc2cc(NC(=O)Nc3ccc(F)cc3)ccc2O[C@H]1CN(C)C	13.1
Cc1ccc(S(=O)(=O)Nc2ccc3c(c2)C(=O)N([C@@H](C)CO)C[C@@H](C)[C@@H](CN(C)C(=O)Nc2ccc(F)cc2)O3)cc1	19.8
Cc1ccc(S(=O)(=O)Nc2cccc3c2O[C@H](CN(C)C)[C@H](C)CN([C@H](C)CO)C3=O)cc1	-15.0
COc1ccc(NC(=O)N(C)C[C@@H]2Oc3c(NS(=O)(=O)c4ccc(F)cc4)cccc3C(=O)N([C@@H](C)CO)C[C@H]2C)cc1	-14.5
C[C@@H]1CN([C@H](C)CO)C(=O)c2cccc(NC(=O)c3ccc(-c4nccs4)cc3)c2O[C@H]1CN(C)C(=O)Nc1ccc(C(F)(F)F)cc1	3.5

3 records picked at random from those above, as already listed:
SMILES	NOMO-1 viab
O=C(CSc1nnc(-c2ccc(Br)cc2)o1)Nc1ccc(Cl)c(Cl)c1	5.6
Cc1ccc(S(=O)(=O)Nc2cccc3c2O[C@H](CN(C)C)[C@H](C)CN([C@H](C)CO)C3=O)cc1	-15.0
C[C@@H]1CN([C@H](C)CO)C(=O)c2cccc(NC(=O)c3ccc(-c4nccs4)cc3)c2O[C@H]1CN(C)C(=O)Nc1ccc(C(F)(F)F)cc1	3.5

This is a subset; rates above refer to the full screens.
